Compound activity (PubChem)
KCNQ2 pot – potentiators of rat KCNQ2 potassium channel. Potassium voltage-gated channel subfamily KQT member 2 (Rattus norvegicus), O88943. CHO-K1 KCNQ2, FluxOR thallium flux fluorescence; stronger effect = higher value. B-score at 10 µM. 310,000 tested, 0.54% active;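 active = fluorescence ratio B-score at least 3 SD of library B-scores, with initial fluorescence B-score within 3 SD, cut at about 5.3 in these data; same plate scores as AID 2156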;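 note: B-score of peak minus minimum over baseline fluorescence ratio after K+ and Tl+ stimulus; positive B-score means potentiation of KCNQ2 with more thallium influx and brighter signal; only the inactives scoring about 0 or higher are listed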
Target sequence (O88943 whole entry, looked up): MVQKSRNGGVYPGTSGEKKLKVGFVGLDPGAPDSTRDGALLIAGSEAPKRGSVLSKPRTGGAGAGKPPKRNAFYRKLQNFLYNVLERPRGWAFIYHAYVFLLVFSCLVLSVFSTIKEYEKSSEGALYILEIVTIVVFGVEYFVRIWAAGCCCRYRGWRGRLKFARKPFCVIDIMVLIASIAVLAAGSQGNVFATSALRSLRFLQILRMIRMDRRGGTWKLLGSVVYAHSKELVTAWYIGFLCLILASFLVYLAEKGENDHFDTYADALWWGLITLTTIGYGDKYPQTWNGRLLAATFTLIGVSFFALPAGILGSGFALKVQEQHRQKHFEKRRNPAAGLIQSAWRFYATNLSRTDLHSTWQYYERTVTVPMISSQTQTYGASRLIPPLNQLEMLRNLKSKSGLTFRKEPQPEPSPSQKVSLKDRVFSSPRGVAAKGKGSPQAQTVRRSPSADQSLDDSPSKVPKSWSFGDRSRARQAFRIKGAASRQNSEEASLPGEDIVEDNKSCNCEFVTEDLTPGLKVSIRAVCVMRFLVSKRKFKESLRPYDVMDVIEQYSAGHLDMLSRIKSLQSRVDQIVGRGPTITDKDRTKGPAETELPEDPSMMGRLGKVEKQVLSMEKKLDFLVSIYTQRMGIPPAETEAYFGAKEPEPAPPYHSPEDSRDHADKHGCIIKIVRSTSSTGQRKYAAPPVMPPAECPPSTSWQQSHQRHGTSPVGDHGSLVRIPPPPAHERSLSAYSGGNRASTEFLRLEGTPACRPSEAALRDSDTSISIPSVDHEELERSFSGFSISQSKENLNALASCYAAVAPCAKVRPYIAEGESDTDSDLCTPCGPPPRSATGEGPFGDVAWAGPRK
KCNQ2 pot baseline – second read-out of KCNQ2 pot, no call of its own (marks repeat the call); B-score; compound at 10 µM; measured here: initial fluorescence intensity artifact check;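 brightness before thallium and not channel activity; 0 = typical well and far values either way flag optical interference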
An asterisk follows results filed as active. These rows are one share of the data; rates above refer to the full screens.

SMILES	KCNQ2 pot	KCNQ2 pot baseline
CCC1Sc2ccccc2N(CC(=O)NC2CC2)C1=O (configuration not stated)	0.79	0.13
CCCCN1C(=O)C(O)(CC(=O)c2ccco2)c2cc(Br)ccc21 (configuration not stated)	0.54	1.1
CC(c1ccccc1)N1C(=O)c2ccccc2C1O (configuration not stated)	0.58	-0.37
O=c1oc(-c2cccc([N+](=O)[O-])c2)nc2ccccc12	0.76	0.39
Cc1nn(-c2ccc(F)cc2)c(Cl)c1/C=C(\CCC(=O)O)c1nc2ccccc2s1	1	-1
O=C(CCOc1ccccc1)Nc1ccccc1[N+](=O)[O-]	1	-0.31
CCOC(=O)c1sc(NC(=O)CCN2CCN(CC)CC2)c(C(=O)OCC)c1C	2.5	-2.6
CN(CC(=O)Nc1ccccc1Cl)C(=O)COC(=O)c1ccc([N+](=O)[O-])cc1Cl	0.08	-0.04
CN(C)S(=O)(=O)c1ccc(S(=O)(=O)NCc2cccs2)cc1	1	-1.2
C/C(CC(=O)NCc1ccco1)=N\NC(=O)Cc1ccc(Cl)cc1	0.33	0.51
COc1ccc(C(CC(=O)O)NS(=O)(=O)c2ccc3c(c2)N(C(C)=O)CC(C)O3)cc1 (configuration not stated)	0.72	1.3
COc1cc(C(=O)NCC(=O)NCCN2C(=O)S/C(=C\c3ccccc3Cl)C2=O)cc(OC)c1OC	0.11	0.18
COc1ccc(OCc2cc(C(=O)N(C)C3CCOC3)no2)c(Cl)c1 (configuration not stated)	0.69	-1.4
CC(C)C(=O)NC(NC(=S)Nc1ccc(S(N)(=O)=O)cc1)C(Cl)(Cl)Cl (configuration not stated)	1.5	1.6
O=C(N=C1SC2CS(=O)(=O)CC2N1Cc1ccc(F)cc1)C1CCCO1 (configuration not stated)	0.49	-1.1
O=C(O)[C@H]1CCCC[C@H]1C(=O)Nc1cc([N+](=O)[O-])ccc1F	0.06	-0.01
CCOC(=O)Cc1ccc(NS(=O)(=O)c2ccc(SC)cc2)cc1	0.1	1.1
CCCCN(C)CCCNC(=O)CC1Oc2ccccc2NC1=O (configuration not stated)	0.86	-0.64
CC(NCc1ccc2c(c1)OCO2)c1ccccc1 (configuration not stated)	0.03	-3
CC(C)[C@H](NC(=O)c1ccco1)C(=O)OCC(=O)N1CC(=O)Nc2ccccc21	1.3	-0.63
O=c1cc(/N=C/c2coc3cc(Br)ccc3c2=O)[nH]c(=S)[nH]1	1.4	-0.67
COC(=O)Cc1ccc(NC(=S)N2CCN(c3cccc(O)c3)CC2)cc1	0.22	0.61
COc1ccc2oc(=O)c(C(=O)NCc3ccccn3)cc2c1	0.33	-2.2
NC(=O)c1nsc(C(=O)N(CC(=O)NCc2ccccc2)c2ccc(F)cc2)c1N	0.02	0.04
COc1ccc2nc(SCC(=O)/C(C#N)=C(\C)N)[nH]c2c1	0.32	-1.3
Next compounds follow:
SMILES	KCNQ2 pot	KCNQ2 pot baseline
Cc1ccc(C)c(N(CC(=O)NCCSCc2ccco2)S(C)(=O)=O)c1	2.5	-2
CCCCn1ccnc1C(=O)c1ccc(S(=O)(=O)N2CCCC2)cc1	0.12	-0.63
Cn1cc(S(=O)(=O)N2CCCC(C(=O)O)C2)cn1 (configuration not stated)	1.1	-0.53
C=CCNC(=O)Nc1ccc2nc(C)sc2c1	0.81	-1.9
O=c1[nH]c2ccc(NC(=S)Nc3ccc(F)cc3)cc2[nH]1	0.05	-0.09
COCC(=O)Nc1cc(Cl)ccc1C	0.47	2.2
CCOc1ccc(N(C(=O)CNC(=O)c2ccco2)C(C(=O)NC2CCCC2)c2ccco2)cc1 (configuration not stated)	0.78	2.1
O/N=C/c1cn(-c2ccc(Cl)cc2)nn1	0.5	1.3
CCN(CC)CCCNC(=O)Cn1nc(-c2ccccc2)ccc1=O	0.91	-2.1
CN(C)S(=O)(=O)N1CCC(CO)(Cc2cccc(C(F)(F)F)c2)CC1	0.53	-0.63
COC(=O)c1cccc(NC(=O)c2cc3ccccc3o2)c1	0.31	1.1
COc1cc(C=O)ccc1OCC(=O)N1CCOCC1	1.6	-1.9
CCc1nc(NCCN)c(C#N)c2c1CSC(C)(C)C2	0.2	1.6
CCCCn1c(SCC(=O)N(CC)C2CCS(=O)(=O)C2)nnc1C(CC)N(C)C (configuration not stated)	1.8	-0.46
Cc1ccc2cccc(OCC(=O)N3CCc4ccccc43)c2n1	1.1	-0.75
CCOc1ccc(C(=O)NCCC2=CCCCC2)cc1OCC	0.88	0.33
Cc1c(N(C)C(=O)C2CCCN2S(=O)(=O)c2ccccc2)c(=O)n(-c2ccccc2)n1C (configuration not stated)	0.02	-1.4
Cc1noc(C)c1C(=O)N1CCOCC1	1.5	-0.9
COc1ccc(O)c(CN2CCC(n3nccc3NC(=O)CCOc3ccccc3)CC2)c1	0.88	-0.28
O=C(NCc1cccc(C(F)(F)F)c1)c1cccc(S(=O)(=O)N2CCN(Cc3ccccc3)CC2)c1	0.97	0.79
Cc1noc(C)c1COC(=O)c1ccc(S(=O)(=O)NCc2ccco2)cc1	0.21	0.44
CCOC(=O)Nc1ccc2c(c1)N(C(=O)CN(CC)CC)c1ccccc1C=C2	1.7	-1
CCOCCCNC(=S)N(CCN(C)C)Cc1cc2cc3c(cc2[nH]c1=O)OCCO3	0.2	0.61
CCOc1ccc(-n2c(SCC)nc3c(c2=O)SCC3)cc1	1.4	-0.06
Cn1cc(CCNCc2cn[nH]c2-c2ccc(-c3ccccc3)cc2)cn1	0.01	0

5 entries from above, in CSV form:
SMILES,KCNQ2 pot,KCNQ2 pot baseline
COC(=O)c1cccc(NC(=O)c2cc3ccccc3o2)c1,0.31,1.1
CCOC(=O)Nc1ccc2c(c1)N(C(=O)CN(CC)CC)c1ccccc1C=C2,1.7,-1
Cn1cc(S(=O)(=O)N2CCCC(C(=O)O)C2)cn1 (configuration not stated),1.1,-0.53
O=c1[nH]c2ccc(NC(=S)Nc3ccc(F)cc3)cc2[nH]1,0.05,-0.09
CCCCn1ccnc1C(=O)c1ccc(S(=O)(=O)N2CCCC2)cc1,0.12,-0.63

(next part)
SMILES	KCNQ2 pot	KCNQ2 pot baseline
N#CCC(=O)Nc1ccc(C(=O)OCc2ccccc2Oc2ccccc2)cc1	2.3	0.34
COc1cc(-c2nnc(CSc3nnc(N)s3)o2)cc(OC)c1OC	1.1	1.2
COc1ccc(Cc2nnc(NC(=O)c3ccccc3[N+](=O)[O-])s2)cc1	0.03	0.27
O=C(NCC1CCCO1)c1ccc(NC(=O)c2ccc(Br)cc2)cc1 (configuration not stated)	1.2	-0.56
Cc1ccc2c(c1)C(O)(CC(=O)c1cccc(-n3cccc3)c1)C(=O)N2 (configuration not stated)	0.68	-0.01
O=C(O)CSc1nnc(-c2cc3ccccc3o2)n1-c1ccccc1	1.2	0.34
CCOC(=O)C(=CNc1ccc(Cl)cn1)C(=O)OCC	2.1	0.05
CC1(C)NC(=O)N(CCOCCSc2ccccc2)C1=O	0.16	0.3
O=C(NC1CCCc2c1cnn2-c1cc(F)cc(F)c1)c1cc[n+]([O-])cc1 (configuration not stated)	1.1	0
CCOc1cc(Cl)c(CNCCCN2CCOCC2)cc1OC	1.2	-0.76
COc1ccc(CCNC(=O)Cc2cc(OC)c(OC)cc2[N+](=O)[O-])cc1OC	2.6	0.25
CSc1ccccc1C(=O)NCCSC(C)(C)C	1.6	0.07
Cc1c(Cl)cccc1NC(=O)Nc1ccn(C)n1	0.43	-1.3
CC(C)CC(=O)Nc1cccc(NC(=O)c2ccccc2Cl)c1	0.81	0.13
O=C(COc1ccccc1)Nc1ccc(S(=O)(=O)Nc2ccccn2)cc1	0.15	-0.18
Cc1nn(C(C)C(=O)NCCc2cccs2)c(=O)c2nn(-c3ccccc3)c(C)c12 (configuration not stated)	0.67	0.92
O=C(Nc1cccc2ncccc12)c1ccc2c(c1)OCCO2	0.04	-0.59
COc1ccccc1C1NC(=O)CCC1[N+](=O)[O-] (configuration not stated)	2.2	-1.5
O=C(OC1C2CCC1C1CN(CCc3ccccc3)CC12)c1ccccc1 (configuration not stated)	0.21	1.7
COc1ccc(N=Cc2c(C)[nH][nH]c2=O)cc1	0.28	0.5
Cc1onc(-c2ccccc2)c1C(=O)c1ccccc1	1.2	-0.08
CCCNC(=O)Nc1cc(OCC)c(N2CCOCC2)cc1OCC	0.12	-2.2
COc1ccccc1-c1csc(NC(=O)c2cc(-c3cccs3)nc3ccccc23)n1	0.43	1.3
Cc1ccc(CN2CCC(n3nccc3NC(=O)CCOc3ccccc3)CC2)o1	1.4	0.78
Cc1ccc(S(=O)(=O)NCC(=O)NCC(=O)OCC(=O)N2CC(=O)Nc3ccccc32)cc1C	3	4.9

Some of these compounds in order of the KCNQ2 pot value, high to low.
SMILES	KCNQ2 pot	KCNQ2 pot baseline
COc1ccccc1C1NC(=O)CCC1[N+](=O)[O-] (configuration not stated)	2.2	-1.5
COc1cc(-c2nnc(CSc3nnc(N)s3)o2)cc(OC)c1OC	1.1	1.2
O=C(CCOc1ccccc1)Nc1ccccc1[N+](=O)[O-]	1	-0.31
COC(=O)c1cccc(NC(=O)c2cc3ccccc3o2)c1	0.31	1.1
CN(CC(=O)Nc1ccccc1Cl)C(=O)COC(=O)c1ccc([N+](=O)[O-])cc1Cl	0.08	-0.04

Continued.
SMILES	KCNQ2 pot	KCNQ2 pot baseline
CC1(C)CC(=O)c2sc(N)nc2C1	1.6	-0.69
Cc1oc(C(C)(C)C)cc1-c1cc(NC(=O)c2ccc([N+](=O)[O-])cc2)n[nH]1	0.79	-0.61
COc1ccc(CNC(=O)c2ccc(N3CCC4(CC3)CC(c3ccc(Cl)cc3)=NO4)c([N+](=O)[O-])c2)cc1	0.23	-0.09
O=C1C(=O)c2ccccc2C([O-])=C1[n+]1ccccc1	0.43	-1.9
O=S(=O)(NCCC1=CCCCC1)c1cccc(S(=O)(=O)N2CCOCC2)c1	0.86	-0.79
COc1ccc(OC)c(S(=O)(=O)Nc2cccc(-c3ccc(N4CCCCCC4)nn3)c2)c1	1.8	0.95
Nc1nc(CN2CCN(Cc3ccc4c(c3)OCO4)CC2)nc(Nc2ccccc2)n1	2.1	0.02
N#CN=C1CCCCCN1CC(N)=O	0.06	1.8
Cc1cc(NC(=O)CCCSc2nc(-c3ccco3)cc(C(F)(F)F)n2)n(-c2ccccc2)n1	1.7	2.8
COC(=O)c1ccccc1NC(=O)Nc1c(C)n(C)n(-c2ccccc2)c1=O	0.86	0.16
O=C(CN1CCN(Cc2ccccc2)CC1)Nc1ccc(Cl)cc1	1.2	0.21
Cc1ccc(S(=O)(=O)N2CCCN(c3nccc(C(F)(F)F)n3)CC2)cc1	0.22	0.95
CCCCNC(=O)N1CCC(CCC(=O)N(C)Cc2ccccc2)CC1	1.6	-0.28
CCOC(=O)c1ccc(N=Nc2c(C)c(C#N)c(O)[nH]c2=O)cc1	0.07	-1.7
CCCOc1ccc(OCCN2CCCC(C)C2)cc1 (configuration not stated)	0.03	-0.72
CCc1ccccc1NC(=O)NC(C)c1ccc2c(c1)OCO2 (configuration not stated)	1.6	0.98
O=C(NCc1nnc(SCC(=O)N2CCOCC2)o1)c1cccs1	0.5	0.33
CCCCC(=O)Nc1ccc(NC(=S)NC(=O)c2ccco2)cc1OC	1.6	-0.82
Cc1ccc(Cn2c(N/N=C/c3ccncc3)nc3c2c(=O)n(C)c(=O)n3C)cc1	0.69	0.47
Cc1onc(-c2ccccc2)c1C(=O)NNC(=S)NC(=O)c1ccc(Cl)cc1Cl	2.2	-1.4
Nc1ccccc1C(=O)N1CCc2ccccc21	0.86	-2.4
O=C(COC(=O)c1ccccc1[N+](=O)[O-])c1ccc2c(c1)OCO2	0.63	1.6
C/C(=N\NC(=O)c1ccc2c(c1)OCO2)c1ccco1	1.7	-0.36
CC(C)(C)c1ccc(OC(=O)c2ccc3snnc3c2)cc1	1	4.2
Cc1ccc(N(CCC(=O)O)S(=O)(=O)c2ccccc2)cc1	0.81	1.6
Next part.
SMILES	KCNQ2 pot	KCNQ2 pot baseline
COc1ccc(S(=O)(=O)N2CCC(N3CCN(c4ccccc4OC)CC3)CC2)cc1	0.07	0.77
O=S(=O)(Nc1ccc(F)cc1)c1cccc2nsnc12	0.86	-2.6
O=C(CNC(=O)c1ccc2c(=O)n3c(nc2c1)CCC3)Nc1ccc(F)c(F)c1	1.9	-0.55
COCC1CCCCN1C(=O)CCCn1nnnc1CN1CCC(C)CC1 (configuration not stated)	0.02	0.16
C=CCN=c1scc(-c2ccco2)n1/N=C/c1ccc(O)c(O)c1O	2.2	-0.37
Cc1ccc(-n2nc3c(c2NC(=O)C2CC2)CS(=O)(=O)C3)cc1	0.01	0.11
Cc1cc(NC(=O)c2ccco2)c(=O)n(Cc2cccc(C(F)(F)F)c2)c1	0.31	0.6
COc1ccc(CC(=O)N2CC(=O)N(CCc3ccccc3)C(=O)C2)cc1	0.06	-0.01
CCCc1cc(=O)oc2c(CN3CCOCC3)c(O)ccc12	1.1	1
COc1ccc(NC(=O)c2ccc(Br)o2)cc1	0.29	0
COc1cccc(CNC(=O)c2nnn(CC(=O)Nc3cccc(C)c3)c2N)c1	1.4	1.1
CC1=NN(C(=O)CSCc2ccccc2)C(O)(c2ccc(F)cc2)C1 (configuration not stated)	4.1	-0.85
CCc1cc2c(=O)c(-c3nc(C)cs3)c(CCCC(=O)O)oc2cc1O	1.4	-3.1
CCc1c(C)sc(NC(=S)N2CCN(S(C)(=O)=O)CC2)c1C(=O)OC	0.3	0.85
CN1CCCC(OC(=O)c2cccc(Br)c2)C1 (configuration not stated)	0.01	0.24
COC(=O)Cn1cc(C(=O)OC)cc(Br)c1=O	0.56	0.04
